MLL AF4-AF9 inh: blocks AF4 peptide binding to human AF9; P42568; AlphaScreen, biotin-AF4 peptide binding to FLAG-AF9; inhibition, % at 10 µM; 350,000 compounds, 0.47% hits; AID 651704;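 active means every replicate reaching a set inhibition limit, whatever the replicate mean, cut at about 25% in these data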;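 further: 0% = plate neutral control median and 100% = total signal loss; the record names both 10 and 1 µM as test concentration; the first replicate is given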
Target sequence (P42568 whole entry, looked up): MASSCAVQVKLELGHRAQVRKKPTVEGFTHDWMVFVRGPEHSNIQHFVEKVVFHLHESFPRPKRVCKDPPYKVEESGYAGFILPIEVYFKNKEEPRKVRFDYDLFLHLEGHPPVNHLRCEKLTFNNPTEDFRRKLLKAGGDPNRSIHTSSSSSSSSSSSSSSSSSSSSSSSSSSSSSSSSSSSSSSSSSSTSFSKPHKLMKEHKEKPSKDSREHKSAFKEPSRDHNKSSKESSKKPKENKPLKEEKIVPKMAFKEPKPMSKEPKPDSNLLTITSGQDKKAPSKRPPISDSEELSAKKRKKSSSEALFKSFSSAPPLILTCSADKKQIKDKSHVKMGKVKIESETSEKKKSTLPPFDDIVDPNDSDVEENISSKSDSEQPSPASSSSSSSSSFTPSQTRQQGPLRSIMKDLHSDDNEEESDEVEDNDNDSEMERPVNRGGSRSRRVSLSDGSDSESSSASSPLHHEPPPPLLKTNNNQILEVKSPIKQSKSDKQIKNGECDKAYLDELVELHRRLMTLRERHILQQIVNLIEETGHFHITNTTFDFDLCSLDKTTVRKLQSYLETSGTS
An asterisk follows results filed as active; & = joins results of further samples. An excerpt (hit frequency here may not be typical).

SMILES	MLL AF4-AF9 inh
CCC/C=C/c1ccc(CN2C(C)C(=O)N(Cc3cn(Cc4ccco4)nn3)CCS2(=O)=O)cc1 (stereo not given)	-0.3
N#C[C@@H]1[C@H](c2ccc(-c3ccccc3)cc2)[C@@H](CO)N1C(=O)Cc1ccccc1	0.5
CCCC#Cc1ccc([C@H]2[C@@H](CO)N(C(C)=O)[C@@H]2CNC(=O)C2CCC2)cc1	-2.8
O=C(C[C@H]1CC[C@H]2[C@@H](COC[C@@H](O)CN2S(=O)(=O)c2ccccc2)O1)NCC1CCCCC1	6.1
COc1cccc(S(=O)(=O)N[C@@H]2CC[C@@H](CCn3cc(-c4ccccc4OC)nn3)O[C@@H]2CO)c1	0.5
O=C(Nc1ccccc1F)c1csc([C@@H]2C[C@H](O)[C@@H](CO)O2)n1	-0.5
C[C@@H]1CCCCO[C@H](CN(C)C(=O)Nc2ccccc2)[C@@H](C)CN([C@H](C)CO)C(=O)c2cc(NC(=O)C3CCCCC3)ccc2O1	-0.4
Cc1noc(C)c1NC(=O)Nc1ccc2c(c1)C(=O)N([C@@H](C)CO)C[C@H](C)[C@@H](CN(C)Cc1ccccc1)OCCCC[C@@H](C)O2	-11
COc1ccc(NC(=O)Nc2ccc3c(c2)C(=O)N([C@@H](C)CO)C[C@@H](C)[C@@H](CN(C)Cc2ccc4c(c2)OCO4)O3)cc1	11
Cc1noc(C)c1S(=O)(=O)Nc1ccc2c(c1)C(=O)N([C@H](C)CO)C[C@@H](C)[C@@H](CN(C)Cc1ccc(Cl)c(Cl)c1)O2	3.4
CC(C)C#Cc1ccc([C@@H]2[C@@H](CO)N3C(=O)CN(C(=O)NC4CCCC4)C[C@@H]23)cc1	1.5
O=C(CN1CCN(Cc2ccccc2)CC1)NNC(=O)c1ccccc1	-1.1
C[C@@H]1CCCCO[C@H](CN(C)Cc2ccccc2)[C@H](C)CN([C@@H](C)CO)C(=O)c2cc(NS(=O)(=O)c3ccc(Cl)cc3)ccc2O1	9.6
O=C(Nc1ccc(Cl)cc1)N1C[C@H]2[C@@H](c3ccccc31)[C@H](CO)N2C(=O)C1CC1	2.2
C[C@@H]1CN([C@@H](C)CO)S(=O)(=O)c2ccc(C#CC3CC3)cc2O[C@@H]1CN(C)Cc1ccncc1	4.7
CN1C(=O)c2cc(NC(=O)Cc3cccs3)ccc2OC[C@@H]2O[C@@H](CC(=O)NCCCN3CCOCC3)CC[C@H]21	-2.3
COc1ccc2c3c(n(C)c2c1)[C@@H](CO)N(C(=O)C1CCCC1)CC31CN(C)C1	8.7
COc1ccc(NC(=O)N(C)C[C@H]2Oc3c(NC(=O)NC(C)C)cccc3C(=O)N([C@@H](C)CO)C[C@@H]2C)cc1	-6.5
C[C@@H]1CN([C@@H](C)CO)C(=O)Cc2cc(NC(=O)c3ccncc3)ccc2O[C@H]1CN(C)C(=O)Nc1cccc2ccccc12	1.6
CC(C)NC(=O)N(C)C[C@@H]1Oc2cc(C#Cc3ccccn3)ccc2S(=O)(=O)N([C@H](C)CO)C[C@@H]1C	-1.0
CN1[C@@H]2c3ccc(-c4ccccc4F)c(=O)n3C[C@@H]2[C@@H](CO)[C@@H]1C(=O)NCc1ccncc1	-1.1
N#C[C@H]1[C@@H](c2ccccc2-c2ccc(F)cc2)[C@@H](CO)N1C(=O)Cc1ccccc1	-3.6
O=C(C[C@@H]1CC[C@H]2[C@@H](COC[C@H](O)CN2Cc2ccc(Oc3ccccc3)cc2)O1)N1CCN(c2ccccc2)CC1	16
C[C@H]1CN([C@@H](C)CO)C(=O)c2cc(NC(=O)NC3CCCCC3)ccc2O[C@@H]1CN(C)S(=O)(=O)c1ccc(F)cc1	-0.4
N#Cc1cccc(NC(=O)c2cc(C3CCCCN3C(=O)C3CC3)on2)c1 (stereo not given)	-2.5
OC[C@@H]1CN(Cc2ccc(Cl)cc2)C[C@H](n2cnc3c(Nc4ccccc4)ncnc32)O1	-0.6
O=C(NCC[C@H]1CC[C@H](NS(=O)(=O)c2cccc(Cl)c2)[C@@H](CO)O1)c1cnccn1	-0.2
C[C@H]1CN([C@@H](C)CO)S(=O)(=O)c2ccc(-c3ccc(F)cc3)cc2O[C@H]1CN(C)CC1CC1	5.9
O=C(Cc1ccccn1)NCC[C@H]1CC[C@@H](NC(=O)Nc2ccccc2)[C@H](CO)O1	3.2
C[C@H](CO)N1C[C@H](C)[C@@H](CN(C)Cc2ccc3c(c2)OCO3)Oc2ccc(NS(=O)(=O)c3cccs3)cc2C1=O	-0.5
C[C@@H]1CN([C@H](C)CO)C(=O)c2cc(C#CC3(O)CCCC3)cnc2O[C@H]1CN(C)C	-2.4
COc1ccc(/C=C/C(=O)OCC(=O)N2c3ccccc3CC2C)cc1OC (stereo not given)	0.7
N#C[C@@H]1N[C@H](CO)[C@H]1c1ccc(C2=CCCC2)cc1	-2.6
OC[C@@H]1CN(Cc2ccccc2)C[C@H](n2cnc3c(NC4CCCC4)ncnc32)O1	0.4
CC(=O)N(C)C[C@@H]1Oc2cc(-c3ccc(C)cc3)ccc2S(=O)(=O)N([C@H](C)CO)C[C@H]1C	-1.3
COc1ccccc1-c1cnc2c(c1)C(=O)N([C@@H](C)CO)C[C@@H](C)[C@@H](CN(C)Cc1cccnc1)O2	-2.3
Cc1ccc(S(=O)(=O)Nc2ccc3c(c2)C(=O)N([C@@H](C)CO)C[C@@H](C)[C@H](CN(C)S(=O)(=O)c2cccs2)O3)cc1	-1.1
Cc1ccccc1-c1cnc(C(O)c2cccc(C)c2C)[nH]1 (stereo not given)	0.1
COc1ccc2c3c([nH]c2c1)[C@H](CO)N(Cc1ccncc1)CC31CCN(C(=O)c2cccnc2)CC1	-0.4
O=C(NCc1cc(Cl)cc(Cl)c1)c1csc([C@@H]2C[C@H](O)[C@@H](CO)O2)n1	-1.1
CN1C(=O)c2cc(NC(=O)Cc3ccccc3)ccc2OC[C@@H]2O[C@H](CC(=O)NC3CCC3)CC[C@@H]21	-1.4
COC(=O)C1=C(C)N(Cc2ccc(C(F)(F)F)cc2)C(=NCC2CC2)NC1c1cccc(Cl)c1 (stereo not given)	7.7
C[C@@H]1CN([C@@H](C)CO)C(=O)c2cccc(NC(=O)C3CC3)c2O[C@H]1CN(C)C(=O)NC1CCCCC1	-3.9
COc1ccc(NC(=S)Nc2ccc3c(c2)c(=O)n(C)n3-c2ccccc2)cc1	4.3
C[C@H](CO)N1C[C@H](C)[C@@H](CN(C)Cc2ccc(C(=O)Nc3ccccc3N)cc2)Oc2c(NC(=O)C3CCOCC3)cccc2C1=O	6.3
O=C(NCCN1CCC(n2c(=O)[nH]c3ccccc32)CC1)N1c2ccccc2Sc2ccccc21	13
CS(=O)(=O)Nc1ccc2c(c1)[C@@H]1C[C@H](CC(=O)NCc3ccccc3F)O[C@H](CO)[C@@H]1O2	-1.1
CC(=O)c1cccc(-c2ccnc3c2CC(C(=O)NCc2ccco2)O3)c1 (stereo not given)	-1.4

The list goes on; it opens with the 3 that closed the last part.
SMILES	MLL AF4-AF9 inh
O=C(NCCN1CCC(n2c(=O)[nH]c3ccccc32)CC1)N1c2ccccc2Sc2ccccc21	13
CS(=O)(=O)Nc1ccc2c(c1)[C@@H]1C[C@H](CC(=O)NCc3ccccc3F)O[C@H](CO)[C@@H]1O2	-1.1
CC(=O)c1cccc(-c2ccnc3c2CC(C(=O)NCc2ccco2)O3)c1 (stereo not given)	-1.4
C[C@H]1CN([C@@H](C)CO)C(=O)c2cc(NS(=O)(=O)c3ccccc3)ccc2O[C@@H]1CN(C)Cc1ccccc1	-1.9
C[C@H](CO)N1C[C@H](C)[C@@H](CN(C)C(=O)c2ccccc2)Oc2cc(C#C[C@@H](C)O)ccc2S1(=O)=O	0.4&-4.0&0.1
COc1cc(-c2c(C(=O)c3ccccc3)[nH]c(N)c2C(N)=O)ccc1F	-2.6
CC(C)c1ccc([C@@H]2O[C@H](CCc3ccccc3)CC3=C2C(=O)OC(C)(C)O3)cc1	-7.9
C[C@@H]1CN([C@H](C)CO)C(=O)c2cc(NC(=O)c3ccncc3)ccc2O[C@@H](C)CCCCO[C@@H]1CN(C)Cc1ccc2c(c1)OCO2	3.1
O=[N+]([O-])c1cccc(COc2ccccc2CO)c1	-0.5
C[C@H]1CN([C@@H](C)CO)C(=O)c2cc(-c3cccc(F)c3)cnc2O[C@H]1CN(C)Cc1cncnc1	-9.0
COc1ccccc1CN(C)C(=O)c1cc(S(=O)(=O)N2CCCCCC2)ccc1OC	0.3
CC=Cc1ccc2n(c1=O)C[C@@H]1[C@@H](CO)[C@H](C(=O)NCCOC)[C@H]2N1Cc1nccs1 (mixture of isomers)	-17
Cc1ccc(CN2CC(N3CCN(c4ccccn4)CC3)CS2(=O)=O)cc1 (stereo not given)	-1.9
CCOC(=O)c1cnc2c3c(noc13)CCC2	-1.4
CCSc1ccc(-c2cc(NC=O)c3ncc(-c4cccc(C(=O)N(C)C)c4)n3c2)cc1	0.0

Arranged by the number under MLL AF4-AF9 inh (high to low): 6 from the list above.
smiles	MLL AF4-AF9 inh
COc1ccccc1CN(C)C(=O)c1cc(S(=O)(=O)N2CCCCCC2)ccc1OC	0.3
O=[N+]([O-])c1cccc(COc2ccccc2CO)c1	-0.5
CCOC(=O)c1cnc2c3c(noc13)CCC2	-1.4
COc1cc(-c2c(C(=O)c3ccccc3)[nH]c(N)c2C(N)=O)ccc1F	-2.6
CC(C)c1ccc([C@@H]2O[C@H](CCc3ccccc3)CC3=C2C(=O)OC(C)(C)O3)cc1	-7.9
CC=Cc1ccc2n(c1=O)C[C@@H]1[C@@H](CO)[C@H](C(=O)NCCOC)[C@H]2N1Cc1nccs1 (mixture of isomers)	-17

Following part
SMILES	MLL AF4-AF9 inh
O=C(Nc1ccc(F)cc1)C(c1cccc(F)c1)N1CCN(CC(=O)N2CCCC2)CC1 (stereo not given)	-0.4
CO[C@H]1CN(C)C(=O)c2ccc(NC(=O)c3ccccc3)cc2OC[C@H](C)N(C)C[C@H]1C	-1.5
COc1ccc(S(=O)(=O)Nc2ccc3c(c2)C(=O)N([C@@H](C)CO)C[C@@H](C)[C@@H](CN(C)C(=O)CCC(F)(F)F)OCCCC[C@H](C)O3)cc1	-1.2
CC(C)OC(=O)/C=C1\C[C@@H](c2ccccc2C(F)(F)F)O[C@@H](c2ccccc2C(F)(F)F)O1	-1.0
Cc1noc(C)c1S(=O)(=O)Nc1ccc2c(c1)CC(=O)N([C@H](C)CO)C[C@@H](C)[C@@H](CN(C)S(=O)(=O)c1c(C)noc1C)O2	1.4
O=C(NC(c1ccc(F)cc1)c1ccc2ccccc2n1)C1CCN(Cc2ccc3ccccc3n2)CC1 (stereo not given)	1.2
Cc1ccc(S(=O)(=O)Nc2ccccc2[N+](=O)[O-])cc1	-1.8
CCCNC(=O)N1CC2(CCN(Cc3cccc(OC)c3)CC2)c2c(n(C)c3cc(OC)ccc23)[C@H]1CO	18
CO[C@H]1CN(C)C(=O)c2cc(NC(=O)Nc3ccccc3F)ccc2OC[C@H](C)NC[C@H]1C	-12
COc1ccc(S(=O)(=O)N(C)C[C@H]2Oc3c(NC(=O)NC4CCCCC4)cccc3C(=O)N([C@H](C)CO)C[C@H]2C)cc1	0.3
COc1ccccc1CN1C[C@H](C)[C@H](OC)CN(C)C(=O)c2cc(NC(C)=O)ccc2OC[C@H]1C	2.6
O=C(CN1CCOCC1)N1[C@@H]2CNc3ccccc3[C@@H]2[C@@H]1CO	-0.1
CCCNC(=O)N1CC(=O)N2[C@H](CO)[C@@H](c3ccc(-c4ccc(F)cc4)cc3)[C@H]2C1	-8.9
C[C@@H]1CN([C@H](C)CO)C(=O)c2cc(NC(=O)CCC(F)(F)F)ccc2O[C@@H](C)CCCCO[C@@H]1CN(C)Cc1ccc(Cl)c(Cl)c1	-4.1
CC(C)C#Cc1ccc2c(c1)O[C@H](CN(C)Cc1ccccc1)[C@H](C)CN([C@@H](C)CO)S2(=O)=O	4.7
C[C@@H]1CN([C@@H](C)CO)C(=O)Cc2cc(NS(C)(=O)=O)ccc2O[C@@H]1CN(C)Cc1ccc2c(c1)OCO2	-0.1
N#C[C@H]1[C@@H](c2ccc(C3=CCCC3)cc2)[C@H](CO)N1c1nc(-c2ccccc2)cs1	-2.8
C[C@H](CO)N1C[C@H](C)[C@@H](CN(C)S(=O)(=O)c2ccc(Cl)cc2)Oc2ccc(NC(=O)Nc3ccc4c(c3)OCO4)cc2CC1=O	8.4
C[C@@H]1CN([C@H](C)CO)C(=O)c2cccc(NS(C)(=O)=O)c2O[C@H]1CN(C)C(=O)Nc1ccc2c(c1)OCO2	-3.1
C[C@H](CO)N1C[C@H](C)[C@@H](CN(C)S(=O)(=O)c2ccccc2)Oc2c(NC(=O)c3nc4ccccc4s3)cccc2C1=O	-3.8
CCCCC(=O)N(C)c1c(CC)nc2c(OCC(N)=O)cccn12	-1.0
CC(C)NC(=O)C1(C)CSCC(=O)N1C1CCN(Cc2ccccc2)CC1 (stereo not given)	0.0
C[C@@H]1CCCCO[C@H](CN(C)CC2CC2)[C@@H](C)CN([C@H](C)CO)C(=O)c2cc(NC(=O)Nc3ccccc3)ccc2O1	4.4
COCCCNC(=O)c1cccc2c(-c3ccc(OC)cc3C)coc12	-3.8
CCCC#Cc1ccc([C@H]2[C@H]3CN(C(=O)Cc4cccnc4)CC(=O)N3[C@H]2CO)cc1	5.6
COc1ccccc1CNC(=O)C[C@H]1C=C[C@H](NC(=O)CN(C)C)[C@@H](CO)O1	0.4
CO[C@H](CN(C)Cc1cc(F)ccc1F)[C@H](C)CN([C@@H](C)CO)S(=O)(=O)c1ccc(C)cc1	1.2
CC(C)C#Cc1cnc2c(c1)C(=O)N([C@@H](C)CO)C[C@@H](C)[C@H](CN(C)C(=O)Cc1ccncc1)O2	0.3

Two of the compounds above, with bars between the fields:
smiles | MLL AF4-AF9 inh
CO[C@H](CN(C)Cc1cc(F)ccc1F)[C@H](C)CN([C@@H](C)CO)S(=O)(=O)c1ccc(C)cc1 | 1.2
CC(C)C#Cc1cnc2c(c1)C(=O)N([C@@H](C)CO)C[C@@H](C)[C@H](CN(C)C(=O)Cc1ccncc1)O2 | 0.3

From PubChem
